Rango dissoc inh: inhibition of RanGTP-driven Rango-importin beta dissociation; Biochemical FRET Rango-importin beta, RanGTP-induced dissociation; Potency, µM (doses to about 46.1 µM), for inactives: top-dose activity change, negative = inhibition; 340,000 tested, 0.071% active; AID 540253; active means falling FRET ratio curve, often poorly fitted, with flat reads before Ran was added; inconclusive means other falling curves, or compound fluorescence or quenching; inactive means flat or rising ratio curve;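 also: potency is read from the fitted curve at half-maximal effect; % of control where 0% means no effect; nearly all actives have a fitted effect of over 45% in size; -100% = wells without RanGTP and RCC1; the record marks most hits as doubtful in a second field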
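Rango FRET biosensor (snurportin-1 IBB flanked by N-terminal EYFP and C-terminal CFP10) at 0.1 uM, with 0.25 uM importin beta in PBS, 1mM DTT, 0.02% Tween-20, 0.1% BSA. 0.6 uM Ran, 2mM GTP and 0.2 uM RCC1 were then added for 45 min at room temperature. Inhibition read as loss of FRET rise.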
Rango-impB inh: Rango-importin beta binding inhibition. Q14974. Rango CFP/YFP FRET sensor + importin beta, 45 min. Potency, µM (top dose mostly 92.2 µM), for the others: at the top dose inhibition of complex formation. 340,000 tested, 0.031% active; active = rising FRET ratio curve, often small or poorly fitted; inconclusive = mostly compound fluorescence or quenching in the first reads; inactive = flat curves in all reads;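 also: potency is read from the fitted curve at half-maximal effect; 0% = DMSO wells and 100% = buffer wells lacking importin beta; nearly all actives have a fitted effect of over 15% in size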
Target sequence (Q14974 whole entry, looked up): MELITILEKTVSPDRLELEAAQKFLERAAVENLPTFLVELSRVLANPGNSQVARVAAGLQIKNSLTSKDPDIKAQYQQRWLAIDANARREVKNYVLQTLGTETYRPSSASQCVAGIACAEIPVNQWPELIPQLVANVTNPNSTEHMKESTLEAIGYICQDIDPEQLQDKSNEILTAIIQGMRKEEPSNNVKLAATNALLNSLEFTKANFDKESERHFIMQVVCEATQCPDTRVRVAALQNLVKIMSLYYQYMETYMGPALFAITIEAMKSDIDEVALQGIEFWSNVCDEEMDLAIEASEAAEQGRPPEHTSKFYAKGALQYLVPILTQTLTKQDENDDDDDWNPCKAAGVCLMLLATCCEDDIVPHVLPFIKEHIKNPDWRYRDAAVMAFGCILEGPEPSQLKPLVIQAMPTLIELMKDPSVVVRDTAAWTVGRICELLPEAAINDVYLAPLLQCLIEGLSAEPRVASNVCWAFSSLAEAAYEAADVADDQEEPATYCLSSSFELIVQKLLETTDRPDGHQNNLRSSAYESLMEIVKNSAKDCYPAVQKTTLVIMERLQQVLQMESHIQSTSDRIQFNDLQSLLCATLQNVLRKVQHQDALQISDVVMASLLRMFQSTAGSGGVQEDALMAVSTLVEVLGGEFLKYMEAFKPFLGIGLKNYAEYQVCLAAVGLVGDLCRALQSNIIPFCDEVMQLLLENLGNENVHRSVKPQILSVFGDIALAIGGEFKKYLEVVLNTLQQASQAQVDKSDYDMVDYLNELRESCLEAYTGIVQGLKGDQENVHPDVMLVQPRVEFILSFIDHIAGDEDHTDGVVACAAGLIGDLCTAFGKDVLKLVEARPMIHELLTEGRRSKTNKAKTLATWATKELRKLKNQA
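FRET biosensor (snurportin 1 IBB flanked by EYFP and cerulean), 50 nM, with compound 5 min, then 0.125 microM importin beta in PBS, 1 mM DTT, 0.02% Tween-20, 0.1% BSA. CFP/YFP ratio read after 45 min at room temperature; pre-read flags interference.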
GLA inh pH 4.5: inhibitors of human alpha-galactosidase A at pH 4.5; activity change, negative = inhibition, % at 105 µM; purified enzyme, 4-MU-alpha-Gal fluorescence, pH 4.5; P06280; AID 1467; 230,000 tested, under 10 active; inconclusive = small, poorly fitted or top-dose-only inhibition, or a rising curve; inactive = flat fitted curve, though single readings scatter; no compound was filed as active;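 also: 0% = full activity with enzyme and -100% = basal without enzyme; dose as in the result columns while the protocol names 77 µM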
miR-21 reporter: raises the signal of a miR-21 reporter. HeLa miR-21 FLuc reporter, luciferase, 48 h. Potency, µM (titrated, usually from 38.3 µM), without a hit: at the highest dose reporter change, positive = more light. 340,000 tested, under 10 active; active = well fitted rising curve with a large enough effect; inconclusive = small, poorly fitted or top-dose-only effect; inactive = no such curve, though single readings can be large or run the other way;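 also: % of control where 0% means no effect; miR-21 action dims this reporter so a rising signal means less miR-21 action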
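HeLa cells stably expressing CMV-driven firefly luciferase with a downstream miR-21 binding sequence, endogenously expressing miR-21, were treated with titrations (up to about 40uM final) for 48 hours at 37 degree Celsius. Luciferase luminescence was read after lysis.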
* marks the source's active call; other numbers are inactive results; ? = inconclusive; . = no result given; & = joins results of further samples; [ ] = remark or other dose. The list is partial, so the mix of outcomes need not match the whole.

miR-21 reporter	Rango-impB inh	GLA inh pH 4.5	Rango dissoc inh	Structure
-9.1%	-2.6%	-10.2	-9.9%	CCn1ncc(CNC(=O)CCSc2nc(-c3ccco3)cc(C(F)(F)F)n2)c1C
-0.9%	-3.3%	1.6	0.7%	CCOc1cc(-c2nc(-c3ccncc3)no2)cc(OCC)c1OCC
11.9%	?	.	-6.3%	O=c1c2ccccc2nc(/C=C/c2cccc(Br)c2)n1CCCO
-3.9%	0.2%	.	-12.7%	O=C(NCC(=O)N(c1ccc(F)cc1)C(C(=O)NC1CCCCC1)c1cccnc1)c1ccco1 (stereo not given)
0.6%	0.6%	6.7	15.9%	O=C(Nc1ccccc1C(=O)N1CCOCC1)c1ccc(F)cc1
.	-4.4%	.	-4.2%	CCOC(=O)c1ccc(-n2cccc2/C=C2\NC(=O)NC2=O)cc1
0.9%	0.1%	-2.9	38.3%	COC(=O)c1c(N2C(=O)CC(Sc3ccccc3C(=O)O)C2=O)sc2c1CCCC2 (stereo not given)
-14.4%	-4.6%	.	0.3%	Cc1ccc(N(C)C2=NC(=O)CS2)cc1Cl
-5.4%	-0.4%	-7.4	-14.3%	O=C(c1ccc2c(c1)OCO2)N1CCN(c2ccc(C(F)(F)F)cn2)CC1
.	2.3%	.	5.7%	O=C(COC(=O)CNC(=O)c1ccccc1Cl)NC1CCCC1
3.4%	0.7%	-19.3	-9.1%	COc1ccc(OC)c(C(c2nnnn2C2CCCC2)N2CCN(c3ccc(F)cc3)CC2)c1 (stereo not given)
2.3%	-2.7%	3.0	1.6%	Nn1c(CN2CCCCC2)nc2ccccc2c1=O
5.2%	-2.2%	.	-2.6%	O=C1Nc2ccc(Br)cc2C1(O)c1ccc(F)cc1 (stereo not given)
-13.7%	-1.5%	.	8.8%	COc1ccc(C(=O)Cc2cc3cccc(OC)c3oc2=O)cc1
-6.5%	-2.4%	4.5	-0.3%	Cc1ccccc1N1CCN(Cc2nc(Cc3ccccc3)no2)CC1
-0.5%	-4.1%	-4.7[21.1 µM]	-19.8%	Cc1cc(F)ccc1NCc1ccc([N+](=O)[O-])cc1
-54.1%	-0.2%	7.6	1.2%	COc1ccc(-c2cc3nnc(-c4ccccc4)nc3s2)cc1
-24.5%	?	-2.3	?	Cc1ccc(/C(O)=C2/C(=O)C(=O)N(CCN3CCOCC3)C2c2ccccn2)cc1 (stereo not given)
3.1%	?	?	?	O=Cc1cn(-c2ccccc2)nc1-c1cc2cc(O)ccc2oc1=O
-1.1%	4.7%	?	-2.6%	Cc1csc2ncc(C(=O)Nc3ccon3)c(=O)n12
.	-1.3%	.	17.4%	COCCN(C(=O)COC(=O)Cc1c[nH]c2ccccc12)c1c(N)n(Cc2ccccc2)c(=O)[nH]c1=O
-8.5%	4.9%	0.6	14.9%	Cc1cnn(-c2nc(-c3ccccc3)cc(-c3ccccc3)n2)c1
.	-2.3%	.	-18.6%	COC(=O)C1=C(C(=O)OC)[C@@H]2N(Cc3ccccc3)c3ccccc3[C@@]23C[C@@H](C(=O)OC)N(C(=O)NC(C)(C)C)C3=N1
-2.4%	7.4%	.	-6.5%	O=C(CS(=O)(=O)Cc1ccccc1)NCCc1ccc(F)cc1
-20.5%	1.5%	.	4.8%	Cc1nc(Cl)sc1C(=O)Nc1ccc(C(C)(C)C)cc1

2 entries from above, with bars between the fields:
mol | miR-21 reporter | Rango-impB inh | GLA inh pH 4.5 | Rango dissoc inh
Cc1csc2ncc(C(=O)Nc3ccon3)c(=O)n12 | -1.1% | 4.7% | ? | -2.6%
Cc1ccc(/C(O)=C2/C(=O)C(=O)N(CCN3CCOCC3)C2c2ccccn2)cc1 (stereo not given) | -24.5% | ? | -2.3 | ?

Not a retest: an excerpt of the list.
miR-21 reporter	Rango-impB inh	GLA inh pH 4.5	Rango dissoc inh	Structure
-2.4%	7.4%	.	-6.5%	O=C(CS(=O)(=O)Cc1ccccc1)NCCc1ccc(F)cc1
-20.5%	1.5%	.	4.8%	Cc1nc(Cl)sc1C(=O)Nc1ccc(C(C)(C)C)cc1

Additional records follow.
miR-21 reporter	Rango-impB inh	GLA inh pH 4.5	Rango dissoc inh	Structure
-0.1%	0.4%	16.7	-22.9%	CCN(CC)S(=O)(=O)c1cccc(C(=O)NCCCn2ccnc2)c1
-7.6%	0.1%	0.5	-18.3%	CCOC(=O)Nc1ccc2c(CN3C(=O)NC4(CCCC4)C3=O)cc(=O)oc2c1
-3.5%	2.7%&-2.3%	.	8.8%&-11.8%	COc1ccccc1Nc1nc(N2CCOCC2)nc(N2CCOCC2)n1
.	1.0%	.	-5.0%	Cc1ccc(SCC(=O)OCC(=O)NCCCc2ccccc2)cc1
4.3%	0.1%	5.9	2.9%	COc1ccc(NC(=O)CSc2nnc(-c3cccnc3)n2Cc2ccco2)c(OC)c1
-1.0%	-1.4%	-3.4	-4.1%	COC1=CC(=O)OC12CCCCC2
-36.1%	-2.6%	4.2	41.6%	Cc1cc(C)c(NC(=O)NC(=O)c2cccc(F)c2)c(C)n1
0.3%	3.0%	.	11.6%	Cc1cc(C)c2oc(C(=O)NCc3ccccc3)cc(=O)c2c1
-1.6%	-4.9%	18.5	1.1%	C=C(C)CN1C(=O)c2ccccc2C1=O
-0.4%	-3.2%	.	0.0%	Cc1cc(C)cc(NC(=O)CS(=O)(=O)c2cccc3nsnc23)c1
-7.0%	0.4%	-4.2	12.2%	O=C(CSc1nnc(-c2ccco2)n1CC1CCCO1)c1ccc(F)cc1 (stereo not given)
-1.5%	?	-1.4	10.1%	COc1ccc(C(C(=O)NC2CCCC2)N(C(=O)c2ccco2)c2ccc3c(c2)OCO3)cc1OC (stereo not given)
-0.6%	-2.7%	12.4	-3.8%	O=C(/C=C/c1cc2c(cc1Br)OCO2)NCc1ccc(Cl)cc1
-6.8%	-0.5%	1.2	-13.5%	CN(Cc1ccccc1F)c1ccc(S(=O)(=O)N2CCCC2)cn1
.	-1.3%	.	1.6%	Cc1cccc(NC(=O)CNC(=O)CN2C(=O)NC(C)(CCC(C)C)C2=O)c1C (stereo not given)
-3.7%	-2.3%	1.7	-9.3%	Cc1ccc(Cl)cc1NC(=O)COC(=O)C1CCCC1
0.7%	-0.6%	-5.3	7.5%	CCn1c(SCC(=O)Nc2nc(C)c(C)s2)nnc1-c1cccs1
1.2%	2.2%	.	7.1%	CSCC[C@H](N)C(=O)N1CCC(C(=O)N[C@H](C)C(=O)NC(C)c2ccccc2)CC1 (stereo not given in full)
-2.3%	3.4%	2.8	-9.4%	CN(CC(=O)Nn1cnnc1)S(=O)(=O)c1ccccc1
2.5%	0.0%	-4.4	42.3%	COc1cc(C(=O)OCC(=O)NCc2ccc(F)cc2)cc(NC(=O)c2cccs2)c1OC
.	3.9%	.	13.3%	COc1ccc(C(=O)NCc2nnc(SCC(=O)c3ccc(F)cc3)n2C)cc1OC
-3.6%	-2.0%	-1.0	4.5%	O=C(Cn1cccc1C(=O)c1ccccc1)NCCCN1CCOCC1
.	-0.8%	.	14.7%	Cc1c(NC(=O)C(C)OC(=O)c2ccc(NC(=O)CC#N)cc2)c(=O)n(-c2ccccc2)n1C (stereo not given)
-21.4%	7.5%	9.0	4.9%	CCOC(=O)c1cn(-c2ccccc2)nc1-c1ccncc1
-0.3%	-0.4%	2.3	7.4%	COc1ccc(OC)c(CNC(=O)Cc2c(C(=O)O)[nH]c3ccc(Cl)cc23)c1
-5.6%	-0.6%	-4.7	-10.2%	O=C(NC(=S)Nc1ccc(N2CCOCC2)cc1)c1cccc([N+](=O)[O-])c1
.	-1.3%	.	33.7%	O=C(CN1CCN(c2ccc(F)cc2)CC1)Nc1ccccc1C(=O)NCCc1ccccc1
21.3%	-0.3%	4.8&-12.1&-14.9&-13.5	0.6%	CN1CCC(=C2c3ccccc3C=Cc3ccccc32)CC1
16.3%	?	-4.6	-8.8%	CCc1cccc(C)c1NC(=O)CSc1nnc(CCCOc2ccc(Cl)cc2Cl)n1C
-6.3%	0.5%	0.3	0.6%	Cc1ccccc1C(=O)c1cccn1CC(=O)N1CCCCCC1
5.2%	?	-6.7	-6.9%	Cc1cc(NS(=O)(=O)c2ccc(NC(=O)/C=C/c3ccc(C)o3)cc2)nc(C)n1
-48.7%	1.1%	6.7	-10.1%	O=C(NNc1nc2cc3c(cc2s1)OCO3)c1ccc(F)cc1
-47.9%	-1.5%	3.6	-0.2%	Cc1cccc(NC(=O)Cc2noc3ccccc23)c1C
-5.5%	-2.9%	-5.8	0.3%	CN1CCN(C(=O)C2=C[C@@H](c3ccc(C(F)(F)F)cc3)C[C@@H](OCCCCO)O2)CC1
-3.7%	0.2%	.	-2.2%	CCN(Cc1ccccc1)S(=O)(=O)c1ccc(C(=O)N(CCCN(C)C)c2nc3ccc(F)cc3s2)cc1
-2.7%	0.0%	2.9	22.0%	COCCCNC(=S)N1CCN(C(=O)C(=O)Nc2ccc(C(=O)OC)cc2)CC1
23.0%	-1.4%	-2.1	-8.5%	CCOC(=O)N1CCC(Nc2ccc3nnc(-c4ccccc4)n3n2)CC1
-13.6%	0.0%	-4.1	4.0%	O=C(O)COc1ccccc1/C=N/NC(=O)c1cc(-c2ccc(F)cc2)nc2ccccc12
.	2.3%	.	-7.1%	O=C(Nc1cccc(/C=C/c2ccccn2)c1)c1ccc(-n2cncn2)cc1
-0.9%	-0.7%	6.1	-5.9%	Cn1c(=O)n(C)c2cc(/C=C(/C#N)C(=O)NCc3ccco3)ccc21
8.2%	?	.	?	Cc1cccc(CN2CCc3c([nH]c4ccccc34)C2CC(C)C)n1 (stereo not given)
-0.5%	-2.6%	1.4	-2.8%	COC(=O)NNC(=S)Nc1cc(OC)ccc1OC
-1.0%	-2.6%	-2.5	5.4%	Cc1cc(C(=O)N2CCC(C(=O)O)CC2)c(C)o1
.	-2.9%	.	7.8%	O=C(COC(=O)/C=C/c1ccc(OC(F)F)cc1)NC1CCCCCC1
-6.4%	-3.3%	.	3.6%	CN1CCN(c2c(/C=N/O)c3ccccc3n2C)CC1
-16.1%	2.2%	.	-0.2%	CCCC(C)c1nc(C(N)=O)c2[nH]c(=O)n(-c3ccc(OC)c(OC)c3)c2n1 (stereo not given)
-13.8%	?	-0.8	2.5%	O=c1cc(O)c2sc(Nc3ccc(F)cc3)nc2[nH]1
10.3%	-5.5%	.	0.5%	CC(=O)Nc1ccc(NC(=O)CSc2nnnn2-c2ccc(F)cc2)cc1
-3.0%	-0.9%	1.6	0.5%	CNC(=O)Nc1nnc(C(C)(C)C)s1
-1.2%	1.1%	0.5	7.3%	CCN(CC)CC(=O)Nc1ccc([N+](=O)[O-])cc1

Additional results:
miR-21 reporter	Rango-impB inh	GLA inh pH 4.5	Rango dissoc inh	Structure
.	0.4%	.	-0.2%	CCOC(=O)c1ccc(S(=O)(=O)NCCNCc2ccccc2)cc1
-6.7%	?	0.7	3.6%	C=CCCCCCCCCC(=O)Nc1c[nH]c(=O)[nH]c1=O
.	0.1%	.	-18.8%	O=C(NCCNC(=O)Oc1cccc2ccccc12)Oc1cccc2ccccc12
-0.4%	6.9%	0.2	17.7%	CC(C)C(NC(=O)c1ccc(C(C)(C)C)cc1)C(=O)NCCc1ccccn1 (stereo not given)
-61.5%	7.7%	-0.1	-9.7%	CC(C)C(=O)Nc1ccc(-c2csc(-c3ccccc3)n2)cc1
-5.9%	0.1%	3.7	-1.1%	CC(=O)c1cccc(CN2CCN(Cc3ccccc3)C(CCO)C2)c1 (stereo not given)
-3.4%	-0.1%	-5.6	?	COc1ccccc1/C=C/C(=O)NCC(=O)N/N=C/c1cccnc1
1.3%	?	.	?	COc1ccc(CN2C(=O)c3cccc4cccc2c34)cc1F
-14.6%	0.6%	2.2	4.9%	CC(NC(N)=O)C(=O)OCC(=O)c1ccc(-c2ccccc2)cc1 (stereo not given)
-4.2%	-3.8%	-9.5	-6.5%	CCc1ccc(C2(O)CC(C(F)(F)F)=NN2C(=O)Cc2ccc([N+](=O)[O-])cc2)cc1 (stereo not given)
.	-9.7%	.	-0.3%	O=C(O)c1cccc(S(=O)(=O)Nc2ccc(N3CCCCC3)cc2)c1

Compound activity from PubChem BioAssay.
